# VACV Venus inh: vaccinia inhibition (Venus reporter). Vaccinia virus Venus reporter expression, fluorescence. Potency, µM (doses to about 36.5 µM), without a hit: at the highest dose activity change, negative = inhibition, usual class: inhibitors. 330,000 compounds, 0.46% hits. AID 720580; active means well fitted inhibition curve with a large enough effect; inconclusive means small, poorly fitted or top-dose-only effect; inactive means no such curve, though single readings can be large or run the other way; tested in A549 cells; note: nearly all actives have a fitted effect of over 30% in size; inactives centre near -10
# VACV mCherry inh: vaccinia inhibition (mCherry reporter). Potency, µM (series often up to 36.5 µM), without a hit: at the top dose activity change, negative = inhibition, most hits filed as inhibitors. 310,000 compounds, 0.63% hits. Vaccinia virus mCherry reporter infection, fluorescence; about a quarter of the inactives have no number; active = well fitted inhibition curve with a large enough effect; inconclusive = small, poorly fitted or top-dose-only effect; inactive = no such curve, though single readings can be large or run the other way; tested in A549 cells; note: nearly all actives have a fitted effect of over 35% in size; inactives centre near -10
# Numbers without * were called inactive; i = inactive; ? = inconclusive; / = no result given; & = joins results of further samples; [ ] = another dose, or the depositor's remark. % is set by controls: 0 for no effect and ±100 for the full control effect; potency is the fitted concentration of half-maximal effect. The order is random. About 0.86% of those tested had a hit in this group.
SMILES,VACV Venus inh,VACV mCherry inh
C[C@@H]1OC(OC2CC[C@@]3(C)C(CC[C@@]4(C)C3CC=C3C5CC(C)(C)CC[C@]5(C(=O)OC5OCC(O)[C@@H](O)[C@@H]5OC5O[C@@H](C)[C@H](O[C@H]6OC(CO)C(O)C(O)C6O)C(O)C5O)C(O)C[C@@]34C)C2(C)C)C(O)C(O)[C@H]1OC1OCC(O)C(O)[C@H]1O (stereo partly drawn),?,?
CCOC(=O)c1cc(-c2ccc(C)cc2)n(CCC(=O)NCCc2ccc(C)cc2)c1C,-8.3%,-13.7%
Cc1ccc(-c2nc3ccc(Cl)cn3c2Cc2ccccc2C(F)(F)F)cc1,-18.6%,2.3%
COCCCNC(=O)CCSc1ccc(C)cc1,-4.9%,-7.1%
CCOC(=O)C1CCCN(S(=O)(=O)c2cc(Br)cc3c2N(C(=O)CC)CC3)C1 (stereo not drawn),-10.7%&-3.5%,-6.1%&-11.7%
Cc1ccn2c(Nc3ccc4c(c3)OCO4)c(-c3ccc(O)cc3)nc2c1,-5.6%,-13.6%
S=c1[nH]nc(COc2ccccc2)n1/N=C/c1cccnc1,-2.1%,-8.9%
Cc1ccc(C(NC(=O)C2CCCCC2)c2c(O)ccc3ccccc23)cc1 (stereo not drawn),?,-36.9%
O=C(Nc1ccc2nccnc2c1)c1cnccn1,-3.7%,-6.9%
COC(=O)NC(=S)Nc1ccccc1NC(=S)NC(=O)OC,-1.5%&-8.5%,-2.5%
O=C(OCn1nnc2ccccc2c1=O)c1ccc(Br)o1,-7.2%,-4.1%
COc1ccc(CN2CCNC(=O)C2CC(=O)NCc2cc(C)n(C)n2)c(F)c1 (stereo not drawn),-4.6%,i
COc1ccc(-c2nnc(SCc3c(C)noc3C)o2)cc1,-5.9%,-15.7%
CC(=O)Nc1ccc(S(=O)(=O)N(C)CC(=O)NNC(=O)Cc2nc3ccccc3n2C)cc1,-5.4%,i
CCc1ccc(NC(=S)Nc2cccc(OC)c2)cc1,-6.6%,-11.3%
O=C(/C=C/c1ccco1)N1CCN(c2ncccn2)CC1,-5.0%,i
CN(C)c1cc(Cl)c2nonc2c1N,-30.8%,?
COc1ccc(NC(=O)Nc2cccc3c2O[C@H](CN(C)C(=O)Nc2ccccc2)[C@@H](C)CN([C@H](C)CO)C3=O)cc1,-14.3%,1.4%
Cc1ccc(CCNC(=O)c2ccc(CS(=O)(=O)c3ccc(Br)cc3)o2)cc1,-1.1%,-4.3%
CCCCOc1ccc(NC(=O)c2cc3c(n(-c4ccc(Cl)cc4)c2=O)CCCC3=O)cc1,-4.4%,-15.8%
COc1cccc(C(=O)NCC(=O)N/N=C/c2cn[nH]c2-c2ccccc2)c1,-16.2%,i
CCOC(=O)c1c(C)[nH]c(C)c1S(=O)(=O)N1CCC(C(=O)NCc2ccccc2)CC1,-5.4%,-11.7%
CCCCCCSc1ccc(-c2nc3cnccn3c2NCCCC)cc1,-4.3%,?
COc1ccc(C2c3c(oc4ccc(Cl)cc4c3=O)C(=O)N2CCN2CCOCC2)cc1 (stereo not drawn),-3.8%,i
CC1CCN(C(=O)c2[nH]cnc2C(=O)NCc2ccccc2)CC1,-10.1%,i
Cc1nc2nc(SCC(=O)NCc3ccccc3Cl)nn2c(C)c1Cc1ccccc1,-4.5%,-5.9%
COc1cccc(CN2C(=O)c3ccccc3S2(=O)=O)c1,-28.6%,-16.0%
COC1=C/C(=C/c2c(N)n3cc(C)sc3nc2=O)C=CC1=O,0.3%,-8.2%
COc1cc(SC)ccc1C(=O)NCCc1c[nH]c2ccccc12,-22.4%,-8.1%
Cc1cc(C)cc(OCC(=O)OCC(=O)NC2CC2)c1,2.4%,-8.3%
CCN1C(=O)C(CC(=O)Nc2ccc(Br)cc2)N(CCCc2ccccc2)C1=S (stereo not drawn),?,/
COC/C=C/C1=CC2=CC(=O)C(C)(OC(=O)c3cnc4ccccc4n3)C(=O)C2=CN1c1ccccc1 (stereo not drawn),-15.4%,?
CCOc1ccc(C2C(C(=O)c3ccc(C)o3)=C(O)C(=O)N2Cc2cccnc2)cc1 (stereo not drawn),2.1%[7.34 µM],25.9%[7.34 µM]
O=C(NC(=S)Nc1ccc(N2CCN(C(=O)c3ccccc3)CC2)cc1)c1cccs1,-24.5%,-29.5%
CCCCC[C@@H](C)N1C[C@H](COCc2ccccc2)Oc2cc(N3CCC[C@H]3CO)ccc2S1(=O)=O,-29.4%,-14.8%
CC(C)CNC(=O)c1ccccc1NC(=O)/C=C/c1cccc([N+](=O)[O-])c1,-2.9%,-10.9%
CCN1C(=O)c2cccc3c(S(=O)(=O)Nc4ccccc4OC)ccc1c23,-28.0%,-5.3%
COCCNC(=O)C(c1ccc(O)cc1)N(Cc1ccco1)C(=O)CCC(=O)Nc1nccs1 (stereo not drawn),11.3%,/
CC(=O)N1CCN(C(=O)C(=O)Nc2c3c(nn2-c2ccc(Cl)cc2)CSC3)CC1,-0.5%,-1.8%
O=C(Nc1cc2c3c(c1)C1CCCC1CN3CC1CCCC21)c1ccc([N+](=O)[O-])cc1 (stereo not drawn),-6.1%,-8.1%

# Quoted at random: 2 records from the list
SMILES,VACV Venus inh,VACV mCherry inh
O=C(Nc1cc2c3c(c1)C1CCCC1CN3CC1CCCC21)c1ccc([N+](=O)[O-])cc1 (stereo not drawn),-6.1%,-8.1%
COC1=C/C(=C/c2c(N)n3cc(C)sc3nc2=O)C=CC1=O,0.3%,-8.2%

# Other records follow.
SMILES,VACV Venus inh,VACV mCherry inh
COc1ccc(Nc2cccc3ccccc23)cc1,-2.6%,-15.5%
O=C(CC1SC(N2CCOCC2)=NC1=O)Nc1cccc(C(F)(F)F)c1 (stereo not drawn),-7.8%,-20.3%
COC(CNC(=O)[C@H](Cc1ccccc1)N1Cc2ccccc2C1=O)OC,-13.9%,-16.5%
NC(=O)C1CCN(C(=O)C2c3ccccc3C(=O)N3CCc4ccccc4C23)CC1 (stereo not drawn),1.2%,-12.2%
CCN(CC)c1ccc(CNc2ccc3c(c2)ncn3CC)cc1,-13.9%,-12.8%
CCCCc1nn2c(=O)cc(COC(=O)c3ccccc3NC(=O)C3CCCCC3)nc2s1,-13.7%,-10.0%
C[C@@]12CCC=C[C@H]1[C@H](c1ccc3ccccc3c1Br)N(Cc1ccccc1)C2=O,?,-28.1%
CC1(C)N=C(c2ccc(F)cc2)C(=O)N1CC(=O)Nc1ccccc1Cl,-25.3%,-22.2%
Cc1cc2cc(CNC(=O)Nc3ccccc3)ccc2n1C,43.0%[activator],10.3%
COc1ccc(-c2cc(C(=O)Oc3ccc(C)cc3)c3ccccc3n2)cc1,6.1%,-7.9%
Cc1c(NC(=O)c2cc(S(=O)(=O)N3CCCCC3)ccc2Cl)c(=O)n(-c2ccccc2)n1C,-7.1%,-6.2%
CC1(C)CC2CC(C)(CN2C(=S)Nc2ccccc2F)C1 (stereo not drawn),-4.8%,-2.7%
Cc1nnc(-c2cnn(C)c2N)n1Cc1ccccc1F,-4.4%,-6.0%
CCC(Cc1ccccc1)NC(=O)C1CCN(S(=O)(=O)c2ccc3c(c2)CC(C)N3C(C)=O)CC1 (stereo not drawn),-4.4%,i
CCC(C)NCCOCCOc1ccccc1-c1ccccc1 (stereo not drawn),-20.9%,-27.2%
CC(C)[C@H](NC(=O)C1CCC(CNC(=O)[C@@H]2CCCN2C(=O)OC(C)(C)C)CC1)C(=O)O (stereo partly drawn),-1.6%,-26.6%
Cc1ccccc1C(CC(=O)c1cccs1)C(C#N)C#N (stereo not drawn),?,?
CC(C)Cn1c(N)c(C(=O)COC(=O)c2cc(-c3ccccc3)nc3ccccc23)c(=O)n(C)c1=O,-22.1%,i
CCn1c(SCc2ccccc2)nc2c(c1=O)SCC2,-0.7%,-1.8%
OC(c1cccnc1)c1nc(-c2ccc3c(c2)OCO3)cs1 (stereo not drawn),0.7%,21.6%

# Some of these compounds in order of SMILES length, high to low.
SMILES,VACV Venus inh,VACV mCherry inh
NC(=O)C1CCN(C(=O)C2c3ccccc3C(=O)N3CCc4ccccc4C23)CC1 (stereo not drawn),1.2%,-12.2%
O=C(CC1SC(N2CCOCC2)=NC1=O)Nc1cccc(C(F)(F)F)c1 (stereo not drawn),-7.8%,-20.3%
OC(c1cccnc1)c1nc(-c2ccc3c(c2)OCO3)cs1 (stereo not drawn),0.7%,21.6%
Cc1cc2cc(CNC(=O)Nc3ccccc3)ccc2n1C,43.0%[activator],10.3%

# Further results.
SMILES,VACV Venus inh,VACV mCherry inh
S=C(c1ccc(Cl)cc1)N1CCN(Cc2ccccc2)CC1,3.9%,?
Cc1cccc(CSCCNC(=O)CN(c2ccccc2)S(=O)(=O)N(C)C)c1,-12.8%,-9.3%
CCCS(=O)(=O)NC(=O)C1(C)CCCN(C(=O)c2ccncc2)C1 (stereo not drawn),2.6%,24.8%
Cc1cc(Br)cc(C)c1NC(=O)c1cnc2ccccn2c1=O,-12.0%,-20.5%
CC1=CC(=O)CC(C)(C)C1(O)/C=C/C(C)=C/C(=O)O (stereo not drawn),-7.8%,15.7%
O=C1c2ccccc2C(=O)N1C1(C(=O)NC2(C(=O)O)CCCC2)CCCC1,-6.5%,i
COCCn1cnnc1SCC(=O)Nc1cccc(S(=O)(=O)N(C)c2ccccc2)c1,1.7%,-23.4%
CC(CN1CCN(C)CC1)OC(=O)c1ccccc1 (stereo not drawn),-16.3%,/
CSc1nc(-c2ccccc2)nc(N2CCOCC2)c1C(C)=O,-26.9%,i
Cc1c(C(=O)OCCOc2ccccc2)[nH]c2c1C(=O)CCC2,-24.7%,-15.1%
Cc1cccc(NC(=O)c2ccc(NC(=O)CC3SC(N4CCCC4)=NC3=O)cc2)n1 (stereo not drawn),2.7%,0.0%
COc1cc(Cl)cc(C2NC(=O)NC(C)=C2C(=O)NCc2ccccc2)c1O (stereo not drawn),-7.2%,?
CCOc1ccc(CNC(=O)CS(=O)(=O)c2cccc3nsnc23)cc1,4.0%,-0.9%
O=C(CSc1nc(N2CCCCC2)nc(N2CCCCC2)n1)Nc1nccs1,-5.5%,/
Cc1c(CN(C)C(=O)/C=C/c2ccc([N+](=O)[O-])cc2)cnn1C,-12.1%,-11.8%
COc1cc2oc3ccccc3c2cc1N(CC(=O)N(C)C)S(=O)(=O)c1ccc(C)cc1,-1.6%,/
Cc1c[n+](C)ccc1CC1C([N+](=O)[O-])=C[N-]c2ncnn21 (stereo not drawn),-11.5%,-15.3%
O=C(c1cc(-c2ccccc2)nc2ccccc12)N1CCc2ccccc2C1,-10.5%,-20.0%
C=CCN1C(=O)c2ccccc2C1(O)Cc1ccccc1 (stereo not drawn),-18.1%,?
COc1ccc(C2Nc3ccccc3C(=O)N2Cc2ccco2)cc1COc1ccc([N+](=O)[O-])cc1 (stereo not drawn),?,/
CC1=Nc2cc(C(=O)NC(C)C)ccc2Sc2ccc(C)cc21,-20.7%[7.34 µM],-29.9%[7.34 µM]
CC(OC(=O)CSc1ccc(F)cc1)C(=O)NC1(C#N)CCCCC1 (stereo not drawn),-10.7%,-12.6%
CCOc1cccc(C(=O)Nc2nnc(-c3cccs3)s2)c1,-8.7%,/
COc1ccc(/C=N/NC(=O)CN2CCCc3ccccc32)c(OC)c1,-10.2%,?
O=C(Nc1ccc(Nc2ccccc2)cc1)c1ccc(Br)o1,-18.2%,-25.3%
O=C(OCC(=O)N1CCc2ccccc21)c1c2c(nc3ccccc13)CCCC2,?,?
Cc1ccc(SCc2cc(=O)[nH]c(SCC(=O)Nc3cc(Cl)ccc3Cl)n2)cc1,4.3%,i
Cc1ccc(N(Cc2cccs2)C(=O)c2ccc(OC(C)C)cc2)cc1,-13.7%,i
Cc1ccc(OCCSc2nc3ccccc3n2CC(=O)O)c(C(C)C)c1,-10.7%,i
O=C(NCC1CCCO1)c1cc(S(=O)(=O)Nc2ccc(Br)cc2)ccc1Cl (stereo not drawn),-20.9%,?
COc1ccc(NC(=O)CSc2n[nH]c(=O)n2C2CC2)cc1Cl,-12.3%,-13.2%
C=CCN1C(=O)/C(=C\c2ccc(Oc3nc(N4CCOCC4)nc(N4CCOCC4)n3)c(OC)c2)SC1=S,-4.7%,i
C/C(N)=C(/C#N)C(=O)CSc1nc2ccccc2c(=O)n1CCCOC(C)C,-14.3%,i
COC(=O)c1c(O)cc(C(C)(C)C)n(-c2ccccc2)c1=O,5.4%,i
COc1cccc(CNS(=O)(=O)c2ccc3c(c2)CC(C)N3C(=O)C2CC2)c1 (stereo not drawn),-10.5%,-1.7%
Cc1ccccc1-c1nnc(SCC(=O)NC2CCCCC2)o1,-20.7%,/
COC(=O)C[C@H]1C[C@@H]2c3cc(N(C)C)ccc3O[C@@H]2[C@H](CO)O1,-27.6%,-16.1%
CC(C)C[C@H](NC(=O)c1nc[nH]c1C(=O)N[C@@H](CCCCN)C(=O)OC(C)(C)C)C(=O)OC(C)(C)C,-9.7%,-4.3%
Cc1ccccc1S(=O)(=O)Nc1ncnc2scc(-c3ccccc3)c12,-15.2%,i
Cc1ccc(C2CC(C(F)(F)F)n3nc(C(=O)Nc4c(C)n(C)n(-c5ccccc5)c4=O)cc3N2)cc1 (stereo not drawn),-15.8%,-27.9%
CC(C)(C)c1ccc(-c2nc3cc(NC(=O)c4cc5ccccc5o4)ccc3o2)cc1,-12.1%,-12.5%
CC(=O)C1=C(c2ccc(C)cc2)N(C(C)=O)n2c(nnc2C2CCCCC2)S1,?,?
COc1ccc(CCNC(=O)c2cccc(Nc3nc4ccccc4nc3-n3nc(C)cc3C)c2)cc1OC,-11.8%,i
CC(=O)N1CCN(C(=O)COC(=O)COc2c(C)cc(C)cc2C)CC1,-7.2%,-12.5%
CCc1ccccc1NC(=O)CSc1nnc(Cn2cnc3ccccc32)o1,-13.0%,/

# Screening results (PubChem BioAssay)
